Screens (PubChem BioAssay)
MITF inhib – inhibitors of MITF; TRPM1 promoter luciferase, luminescence, 24 h; inhibition, % (no concentration beside the values); hit rate 0.28% among 37,000;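 active = most replicates at 85% or more, or half of them and the mean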;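 note: human melanocyte line stably carrying TRPM1 promoter luciferase reporter; 0% = vehicle wells and 100% = a positive control; the first replicate is given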
YB-1 expr inh – YB-1 expression inhibition; U2OS, qRT-PCR YB-1 vs CDIP delta delta Cp, 16 h; hits give high values; zero = DMSO, each unit about twofold; delta delta Cp (YB-1 minus CDIP) (test concentration not listed); hit rate 0.37% among 30,000; AID 434959;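 active = delta delta Cp rounded down to an integer at or above 3, about 3 SD of DMSO wells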;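 note: higher means less YB-1 transcript or more CDIP transcript relative to DMSO; stock transfer was 100 nL into about 100 µL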
Shh pathway inh – blocks Sonic Hedgehog signaling. AID 2313. Shh-LIGHT2 Gli-luciferase reporter, 30 h. hit rate 2.1% among 22,000. inhibition, % (no concentration beside the values);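 active = replicate mean of 65% or more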;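 note: pathway switched on by Shh-conditioned medium diluted 1 in 25 in low serum; 100 nL library stock added to about 40 µL; 0% = median of neutral wells and 100% = positive control level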
PD-1 reversal – reversal of PD-1 mediated T-cell inhibition; primary human CD4 T cells, PD-L1 beads, CellTiter-Glo 96 h; activation, % (concentration not given with the values); 29,000 tested, under 10 active; AID 2316;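 active = replicate mean of 50% or more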;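 note: 0% = median vehicle wells and 100% = positive control; 100 nL library stock added to about 50 µL; numbers are from one replicate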
An asterisk follows results filed as active; / = no result given. Some of the compounds tested, so the mix of outcomes need not match the whole.

Each structure is followed by: MITF inhib | YB-1 expr inh | Shh pathway inh | PD-1 reversal
1) C[C@H](CO)N1C[C@H](C)[C@@H](CN(C)C(=O)NC2CCCCC2)Oc2c(NC(=O)c3nc4ccccc4s3)cccc2C1=O
 : -12 | -0.13 | -12 | -1.4
2) C[C@H](CO)N1C[C@H](C)[C@H](CN(C)CC2CC2)Oc2c(NC(=O)Nc3ccccc3)cccc2C1=O
 : 4 | -0.092 | -2 | -0.4
3) Cn1c(SCC(=O)c2ccc([N+](=O)[O-])cc2)nnc1-c1cc2ccccc2cc1O
 : 40 | / | / | -7.4
4) C[C@H](CO)N1C[C@H](C)[C@@H](CN(C)S(=O)(=O)c2cccs2)Oc2c(cccc2N(C)C)C1=O
 : 8 | -0.17 | 2 | 2.4
5) Cc1ccc(C(=O)O)cc1S(=O)(=O)N(C)CCO
 : 3 | / | / | 1.8
6) COc1ccc(NC(=O)N(C)C[C@H]2Oc3ccc(NS(=O)(=O)c4cn(C)cn4)cc3C(=O)N([C@@H](C)CO)C[C@@H]2C)cc1
 : -11 | -0.17 | -25 | 1.2
7) C[C@@H]1CN([C@@H](C)CO)C(=O)c2cc(NC(=O)Cc3cn(C)c4ccccc34)ccc2O[C@H]1CN(C)S(=O)(=O)c1ccc(Cl)cc1
 : 21 | 0.06 | / | -0.7
8) CC(NS(=O)(=O)c1ccc(Br)cc1)C(=O)Nc1cccc(C(F)(F)F)c1 (stereo not drawn)
 : 18 | / | / | -2.4
9) Cc1ccc(-c2nn(C)c(=O)c3ccccc23)cc1S(=O)(=O)NCCN1CCOCC1
 : -9 | / | / | -0.4
10) C[C@H](CO)N1C[C@H](C)[C@H](CN(C)S(=O)(=O)c2ccc(F)cc2)Oc2c(NC(=O)C3CCOCC3)cccc2C1=O
 : -4 | -0.063 | -65 | -1.7
11) O=C1C(=O)N(CCCn2ccnc2)C(c2cccs2)C1C(=O)c1cc2ccccc2o1 (stereo not drawn)
 : 1 | / | / | 1.2
12) CCOC(=O)c1cnc2nc(NCc3ccc(OC)c(OC)c3)[nH]n2c1=O
 : 4 | / | / | 1.6
13) Cc1cc(C(=O)Nc2cccc3c2O[C@@H](CN(C)Cc2ccc(C(=O)Nc4ccccc4N)cc2)[C@@H](C)CN([C@@H](C)CO)C3=O)n(C)n1
 : -11 | -0.48 | / | -2.9
14) CCn1c(SCC(=O)O)nnc1-c1c[nH]c2ccccc12
 : -18 | / | / | 1.8
15) C[C@@H]1CN([C@H](C)CO)C(=O)c2cccc(NC(=O)CCCCCC(=O)Nc3ccccc3N)c2O[C@H]1CN(C)Cc1ccncc1
 : 3 | -0.41 | / | 1.8
16) Cc1nn(-c2cc(Cl)ccc2Cl)c(N)c1-c1nc(-c2ccccc2)cs1
 : -5 | -0.072 | / | 0.4
17) CCCOc1ccc(/C(=N\O)C(C)(C)NO)cc1
 : -8 | 0.12 | / | 1.0
18) C[C@H]1CN([C@@H](C)CO)C(=O)Cc2cc(NS(=O)(=O)c3cn(C)cn3)ccc2O[C@@H]1CN(C)Cc1ccncc1
 : -6 | -0.27 | / | 0.8
19) Cc1ccc(S(=O)(=O)N(C)C[C@H]2Oc3ccc(NS(=O)(=O)c4cn(C)cn4)cc3C(=O)N([C@@H](C)CO)C[C@@H]2C)cc1
 : 2 | -0.14 | 7 | 0.6
20) COc1ccc(NC(=O)N(C)C[C@H]2Oc3ccc(NC(=O)Nc4ccc(F)cc4)cc3CC(=O)N([C@@H](C)CO)C[C@@H]2C)cc1
 : 2 | 0.057 | -12 | 0.2
21) COc1cc([N+](=O)[O-])ccc1NC(=O)c1ccccc1OCC(=O)NC(C)(C)C
 : 26 | / | / | 2.6
22) Cc1noc(C)c1NC(=O)N(C)C[C@H]1Oc2c(NC(=O)c3nc4ccccc4s3)cccc2C(=O)N([C@@H](C)CO)C[C@@H]1C
 : 3 | -0.14 | 29 | /
23) COc1ccc(S(=O)(=O)N(C)C[C@H]2Oc3ccc(NC(=O)Nc4ccccc4)cc3CC(=O)N([C@@H](C)CO)C[C@H]2C)cc1
 : 19 | 0.064 | -21 | -0.2
24) O=c1c(=O)n2c(nn1CN1CCOCC1)sc1ccccc12
 : -36 | -0.17 | 3 | 4.1
25) COC(=O)c1c(NC(=O)CC2Nc3cccc4cccc(c34)NC2=O)sc(C)c1C (stereo not drawn)
 : 53 | / | / | -3.1
26) CNC[C@@H]1Oc2c(NC(=O)NC(C)C)cccc2C(=O)N([C@@H](C)CO)C[C@@H]1C
 : 5 | 0.05 | 3 | 1.6
27) C[C@H]1CN([C@@H](C)CO)C(=O)c2cccc(NC(=O)Nc3ccccc3)c2O[C@H]1CN(C)S(=O)(=O)c1ccc(Cl)cc1
 : 25 | -0.53 | 108* | -2.8
28) CC(C)NC(=O)Nc1ccc2c(c1)CC(=O)N([C@H](C)CO)C[C@@H](C)[C@H](CN(C)S(=O)(=O)c1cccs1)O2
 : -9 | 0.48 | -22 | 0.3
29) O=C(CSc1ncnc2sc(-c3ccccc3)cc12)c1ccc2c(c1)OCCO2
 : -1 | -0.5 | -25 | -0.2
30) C[C@H](CO)N1C[C@H](C)[C@H](CN(C)CC2CCCCC2)Oc2ccc(NC(=O)CCCCCC(=O)Nc3ccccc3N)cc2C1=O
 : 17 | 0.14 | / | -0.1
31) C[C@@H]1CCCCO[C@@H](CN(C)S(=O)(=O)c2cccs2)[C@@H](C)CN([C@H](C)CO)C(=O)c2cc(NS(=O)(=O)c3cn(C)cn3)ccc2O1
 : -3 | -0.68 | / | /
32) CCn1c(SCC(=O)c2ccc(OC)cc2)nnc1-c1ccc(C)cc1
 : 30 | / | / | 0.4
33) C[C@H]1CN([C@@H](C)CO)C(=O)c2cccc(NC(=O)Nc3ccccc3)c2O[C@@H]1CN(C)C(=O)Nc1ccc(C(F)(F)F)cc1
 : -8 | -0.002 | 26 | -1.0
34) OCCN(Cc1ccccc1)c1ncnc2c1sc1nc(N3CCOCC3)c3c(c12)CCCC3
 : 22 | / | / | -5.3
35) C[C@H]1CN([C@@H](C)CO)C(=O)c2cc(NS(=O)(=O)c3ccc(Cl)cc3)ccc2O[C@@H]1CN(C)Cc1ccncc1
 : 2 | 0.12 | 13 | 0.0
36) Cc1cc(S(=O)(=O)NCCC(=O)O)ccc1F
 : 0 | / | / | 2.1
37) COC(=O)Cc1c(C)nc2nc(-c3ccccc3)[nH]n2c1=O
 : -18 | / | / | -0.4
38) CS(=O)(=O)N(CC(=O)Nc1cc(Cl)cc(Cl)c1)c1ccc(Cl)cc1
 : -6 | / | / | -6.1
39) CC(C)NC(=O)Nc1ccc2c(c1)C(=O)N([C@@H](C)CO)C[C@@H](C)[C@H](CN(C)Cc1ccc(Cl)c(Cl)c1)O2
 : 7 | -0.18 | 16 | 1.5
40) Cc1noc(C)c1NC(=O)N(C)C[C@H]1Oc2ccc(NS(=O)(=O)c3ccc(F)cc3)cc2C(=O)N([C@@H](C)CO)C[C@@H]1C
 : -8 | 0.19 | -59 | /
41) C[C@@H]1CN([C@H](C)CO)C(=O)c2cccc(NC(=O)CCCCCC(=O)Nc3ccccc3N)c2O[C@H]1CN(C)C(=O)Nc1ccc(C(F)(F)F)cc1
 : 2 | 0.086 | / | -0.5
42) C[C@H](CO)N1C[C@H](C)[C@@H](CN(C)C(=O)Nc2ccc(F)cc2)Oc2c(NC(=O)c3cnccn3)cccc2C1=O
 : -1 | -0.4 | 5 | 0.7
43) C[C@H](CO)N1C[C@H](C)[C@H](CN(C)C(=O)NC2CCCCC2)Oc2ccc(NS(C)(=O)=O)cc2C1=O
 : -8 | -0.073 | -16 | 1.2
44) C[C@@H]1CN([C@H](C)CO)C(=O)c2cccc(NS(=O)(=O)c3cn(C)cn3)c2O[C@@H]1CN(C)CC1CC1
 : -3 | 0.0094 | -3 | 3.9
45) C[C@H]1CN([C@@H](C)CO)C(=O)c2cc(NS(=O)(=O)c3cn(C)cn3)ccc2O[C@H]1CN(C)Cc1ccc(Oc2ccccc2)cc1
 : 7 | 0.21 | / | 5.4
46) C[C@@H]1CN([C@@H](C)CO)C(=O)c2cc(N(C)C)ccc2O[C@H]1CN(C)S(=O)(=O)c1ccc(F)cc1
 : 14 | -0.12 | -5 | -0.4
47) C[C@@H]1CCCCO[C@@H](CN(C)CC2CC2)[C@@H](C)CN([C@H](C)CO)C(=O)c2cc(NC(=O)Cc3ccccc3)ccc2O1
 : 0 | -0.1 | -23 | 0.9
48) Cc1cc(C(F)(F)F)nc(SCC(=O)Nc2cc(C(F)(F)F)ccc2Cl)n1
 : 0 | / | / | -1.7
49) CCOC(=O)C1=C(S)N(C#N)C(=O)C(C#N)C12CCNCC2 (stereo not drawn)
 : 0 | -0.54 | -38 | 0.6
50) Cc1ccc(C2c3c(oc4ccccc4c3=O)C(=O)N2c2nnc(C)s2)o1 (stereo not drawn)
 : 7 | / | / | 2.0
51) C[C@@H]1CN([C@H](C)CO)C(=O)c2cccc(NC(=O)Nc3ccccc3)c2O[C@@H]1CN(C)S(=O)(=O)c1ccc(Cl)cc1
 : -14 | -0.092 | 4 | -1.5
52) Cc1noc(C)c1NC(=O)Nc1ccc2c(c1)CC(=O)N([C@H](C)CO)C[C@@H](C)[C@@H](CN(C)C(=O)Nc1cccc3ccccc13)O2
 : 10 | 0.22 | 2 | -0.6
53) O=C(COc1ccc(I)cc1)Nc1cccc(-c2nnc(-c3ccco3)o2)c1
 : -8 | / | / | -0.3
54) C[C@H](CO)N1C[C@H](C)[C@H](CN(C)C(=O)Nc2cccc3ccccc23)Oc2ccc(NC(=O)Nc3ccc4c(c3)OCO4)cc2CC1=O
 : 6 | 0.3 | -12 | /
55) COc1cc(-c2nc3ccccc3s2)cc(Br)c1OCC(=O)O
 : 37 | / | / | -0.9
56) C[C@H](CO)N1C[C@H](C)[C@H](CN(C)C(=O)Nc2ccc3c(c2)OCO3)Oc2c(NC(=O)c3cnccn3)cccc2C1=O
 : -12 | 2.2 | -28 | 0.7
57) COc1ccc(NC(=O)Nc2ccc3c(c2)C(=O)N([C@@H](C)CO)C[C@@H](C)[C@H](CN(C)C(=O)Nc2ccc(OC)cc2)O3)cc1
 : -2 | -0.057 | 20 | -0.4
58) C[C@@H]1CN([C@@H](C)CO)C(=O)c2cc(NS(=O)(=O)c3cccs3)ccc2O[C@@H]1CN(C)S(=O)(=O)c1cn(C)cn1
 : -4 | 0.36 | -9 | 0.6
59) COc1ccc(S(=O)(=O)N(C)C[C@H]2Oc3ccc(NC(=O)Cc4ccccc4)cc3CC(=O)N([C@@H](C)CO)C[C@H]2C)cc1
 : 5 | 0.6 | -57 | -1.2
60) C[C@@H]1CN([C@H](C)CO)C(=O)c2cc(NC(=O)Nc3ccc(F)cc3)ccc2O[C@@H]1CN(C)C(=O)Nc1ccc2c(c1)OCO2
 : -4 | -0.14 | -23 | 1.2

Record cards, as listed above:
Cc1ccc(C2c3c(oc4ccccc4c3=O)C(=O)N2c2nnc(C)s2)o1 (stereo not drawn) reads MITF inhib: 7; YB-1 expr inh: /; Shh pathway inh: /; PD-1 reversal: 2.0
CNC[C@@H]1Oc2c(NC(=O)NC(C)C)cccc2C(=O)N([C@@H](C)CO)C[C@@H]1C reads MITF inhib: 5; YB-1 expr inh: 0.05; Shh pathway inh: 3; PD-1 reversal: 1.6

Next section
Each structure is followed by: MITF inhib | YB-1 expr inh | Shh pathway inh | PD-1 reversal
61) O=C(/C=C/c1ccccc1)OC[C@]12O[C@H]1[C@@H](O)[C@@H]1C=CO[C@@H](O[C@@H]3O[C@H](CO)[C@@H](O)[C@H](O)[C@H]3O)[C@@H]12
 : -34 | 0.065 | 13 | 0.3
62) C[C@@H]1CN([C@H](C)CO)C(=O)c2cccc(NC(=O)Nc3ccccc3)c2O[C@@H]1CN(C)Cc1ccc(C(=O)O)cc1
 : -17 | -0.018 | -7 | /
63) C[C@@H]1CN([C@@H](C)CO)C(=O)c2cc(NS(C)(=O)=O)ccc2O[C@H]1CN(C)Cc1ccc(C(F)(F)F)cc1
 : 0 | 0.19 | 12 | -0.7
64) COc1ccc(S(=O)(=O)N(C)C[C@@H]2Oc3ccc(NC(=O)NC4CCCCC4)cc3C(=O)N([C@H](C)CO)C[C@@H]2C)cc1
 : -9 | 0.48 | 7 | 0.1
65) C[C@@H]1CN([C@H](C)CO)C(=O)c2cc(NC(=O)Cn3cnnn3)ccc2O[C@@H]1CN(C)S(=O)(=O)c1cccs1
 : 11 | 0.35 | -21 | 0.7
66) C[C@@H]1CN([C@@H](C)CO)C(=O)c2cc(NC(=O)Cc3ccccc3)ccc2O[C@@H]1CN(C)Cc1ccc(C(F)(F)F)cc1
 : 2 | 0.12 | / | 0.4
67) Cc1noc(C)c1NC(=O)Nc1ccc2c(c1)C(=O)N([C@H](C)CO)C[C@H](C)[C@H](CN(C)S(C)(=O)=O)OCCCC[C@@H](C)O2
 : -5 | 0.19 | -24 | 0.2

Molecules listed so far that contain bromine (2):
Each structure is followed by: MITF inhib | YB-1 expr inh | Shh pathway inh | PD-1 reversal
8) CC(NS(=O)(=O)c1ccc(Br)cc1)C(=O)Nc1cccc(C(F)(F)F)c1 (stereo not drawn)
 : 18 | / | / | -2.4
55) COc1cc(-c2nc3ccccc3s2)cc(Br)c1OCC(=O)O
 : 37 | / | / | -0.9
